Sa growth inh: S. aureus growth inhibition | S. aureus RN4220 growth, OD600, 20 h, 42 °C; hits give low values | relative growth, % (test concentration not listed) | hit rate 0.53% among 170,000 | AID 720641;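 active means growth at 42 °C up to 50% and 20 or more points under that at 30 °C, or under 10% at both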;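 further: 300 nL library stock went into each well; scaled to the means of positive and negative controls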
GIV Gai3 FP: blocks GIV peptide binding to rat Galpha-i3; P08753; Galpha-i3/FITC-GIV peptide fluorescence polarization, 90 min; hits give low values; scaled: aluminum fluoride 0%, vehicle 100%; percent of control (FP), % (no concentration beside the values); hit rate 0.42% among 210,000;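 active means replicate mean at 85% of control or lower, very high polarization wells dropped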;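 further: wells of about 15 µL received 100 nL stock; the first replicate is given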
Target sequence (P08753 whole entry, looked up): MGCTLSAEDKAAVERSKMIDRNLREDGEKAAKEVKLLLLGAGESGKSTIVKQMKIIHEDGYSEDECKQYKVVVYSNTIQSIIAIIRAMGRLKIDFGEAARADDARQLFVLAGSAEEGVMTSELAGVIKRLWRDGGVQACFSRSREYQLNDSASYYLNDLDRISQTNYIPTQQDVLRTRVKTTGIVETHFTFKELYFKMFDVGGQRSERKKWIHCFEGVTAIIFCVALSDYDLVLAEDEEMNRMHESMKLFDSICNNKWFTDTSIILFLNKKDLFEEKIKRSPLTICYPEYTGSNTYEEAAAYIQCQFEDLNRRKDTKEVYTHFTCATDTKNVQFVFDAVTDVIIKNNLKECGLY
HCMV NEC inh: cytomegalovirus nuclear egress complex inhibition. HTRF UL50-UL53 interaction, normalized percent inhibition. inhibition, % (concentration not given with the values). hit rate 0.15% among 190,000;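 active means both replicates at 50% or more, plus weaker picks with an unusually low signal ratio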;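 further: stock transfer was 100 nL into about 20 µL; 0% = negative control wells and 100% = wells with untagged competitor protein; inactives centre near -12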
Sa growth inh second temp: also measured in Sa growth inh; calls as there; relative growth, %; measured here: growth at 30 °C;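 optical density after 20 h as mean of two plates; 100% = untreated growth and lower means inhibition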
Active calls of the source: *; nt = no result given; & = joins results of further samples.

SMILES	Sa growth inh	Sa growth inh second temp	GIV Gai3 FP	HCMV NEC inh
CCOC(=O)CC(NC(=O)Cn1nnc(-c2ccc(C(F)(F)F)cc2)n1)c1ccc(OC)cc1 (stereo not given)	83	99	100	-1
Cc1ccc(C2C3=C(CC(C)(C)CC3=O)Nc3ccccc3N2C(=O)Cc2ccc(Cl)cc2)o1 (stereo not given)	nt	nt	104	-14
Cc1ccc2c(c1)OC=CC(C(=O)NC1CCCC1)=C2	nt	nt	105	-47
O=S(=O)(c1ccc(Nc2ccc(-c3ccccc3)nn2)cc1)N1CCCC1	121	94	108	-3
O=C(CNC1CC2CC=CC21)Nc1ccc(F)c(F)c1 (stereo not given)	107	87	nt	-5
O=C(NCc1ccco1)c1ccc2c(c1)N(Cc1c(F)cccc1Cl)C(=O)c1ccccc1S2	99	97	104	-23
CC(C)C(=O)c1ccc(OCCOc2ccc(C#N)cc2)cc1	102	82	99	-18&-5
CCc1c(C)c2ccc(OCC(=O)C(C)(C)C)c(C)c2oc1=O	116	108	97	-1
COc1ccc(C(=O)Nc2ccc3c(c2)nc2n3CCN(Cc3ccccc3)C2)cc1	92	76	116&100	0&-15
O=C(OCC1CCCO1)c1ccc2c(c1)N(Cc1cccc(F)c1)C(=O)c1ccccc1S2(=O)=O (stereo not given)	103	90	103&103	-12
O=C1CCCCN1c1ccc(C(F)(F)F)cc1	108	85	98	29
CC(C)CCN(Cc1ccco1)S(=O)(=O)c1ccc(-c2cc(C(F)(F)F)no2)s1	86	90	106	-22
CCCNC(=O)C1CCN(c2ccc(F)cc2)C1=O (stereo not given)	nt	nt	100	-5
Cc1cc(/C=N/NC(N)=S)c(C)n1CC(F)(F)F	98	94	nt	-41
CC(C)CC(=O)Nc1onc2c1CC(C)CC2 (stereo not given)	nt	nt	96	-22
Cc1cc(C)cc(OC(C)C(=O)Nc2nc3c(s2)CCCC3)c1 (stereo not given)	92	79	102	-18
O=C1CC(C(=O)O)C(c2ccccc2)O1 (stereo not given)	90	82	105	-20
CC(C)(C)c1cc2n(n1)CC(C)(C(=O)NC1CCCCC1)N(c1cccc(F)c1)C2=O (stereo not given)	nt	nt	96	-5
Clc1cccc(Cl)c1-c1cc(-c2ccccn2)on1	107	85	95	-22
O=C(NCC1CCCCC1)c1ccc(Br)o1	97	94	102	-8
O=S(=O)(NCCc1ccccc1)c1cccs1	111	80	104	-1
COc1ccc2[nH]c3c(c2c1)CCN(C(=O)c1ccc(C)cc1)C31C(=O)Nc2ccccc21 (stereo not given)	nt	nt	103	-28
CCN(CCCNC(=O)c1ccc(Sc2ccc(C)cc2)c(NC(C)=O)c1)c1cccc(C)c1	116	90	102	nt
COC(=O)/C(C#N)=C1\NC(C)=NC(SC)=C1C#N	99	93	115	9
COCCNC(=O)c1cc(-c2ccccn2)nc2ccc(S(=O)(=O)N3CCC(C)CC3)cc12	92	106	110	-4
Cc1nnc(SCc2nc3sc4c(c3c(=O)[nH]2)CCCC4)n(N)c1=O	83	93	nt	-42
COc1ccc(NC(=O)COC(=O)c2ccc(-n3cnnn3)cc2)cc1Cl	75	52	nt	-28
CCOC(=O)c1c(C)[nH]c(C)c1S(=O)(=O)N1CCCC(C(=O)NCc2ccccc2Cl)C1 (stereo not given)	76	82	103&106	-6
Cc1ccc(CNC(=O)C(=O)NCC(c2ccc3c(c2)OCO3)N2CCOCC2)cc1 (stereo not given)	96	87	96	nt
Clc1cc(Cl)c(NN=C2CCCC2)c(Cl)c1	106	104	nt	7
CCOC(=O)c1nc(N2CCCC(C)C2)c2ccccc2n1 (stereo not given)	92	89	106	-36
COc1cccc(CNC(=O)C2CCN(c3ncnc4c3sc3nc(C)cc(-c5ccccc5)c34)CC2)c1	nt	nt	99	-5
Cc1nnc(SCC(=O)N2N=C3/C(=C/c4ccco4)CCCC3C2c2ccco2)n1-c1ccccc1 (stereo not given)	85	90	nt	-42
CCN(CC)S(=O)(=O)c1cccc(C(=O)Nc2ccc(I)cc2)c1	105	88	97	nt
CC1(C(=O)O)NC(c2cc(Br)ccc2O)C2C(=O)N(c3ccccc3)C(=O)C21 (stereo not given)	93	84	nt	-14
CC(C)(C)C(=O)N(Cc1cccnc1)Cc1ccc(Cl)cc1Cl	95	97	101	-5
CC1CCCCC1NC(=O)COC(=O)c1ccc(N(C)C)cc1 (stereo not given)	106	98	nt	12
CN(C)CCNc1ccc(S(=O)(=O)Cc2ccc(Cl)cc2)nn1	nt	nt	103	5
CC1(C)CN=C(NCCNC2=NCC(C)(C)S2)S1	94	93	98	2
CN(C)c1cccc(-c2nc(-c3ccc4c(c3)[nH]c(=O)c(=O)n4C)no2)c1	nt	nt	109	1
COc1ccccc1NC(=O)C1=C(C)Nc2c(C(=O)Nc3cccc(C)c3)cnn2C1c1ccccc1Cl (stereo not given)	105	89	97	nt
CC(C)(C)OC(=O)N1CCC(c2c(C(=O)NCCN3CCC(Cc4ccccc4)CC3)cnn2-c2ccc(F)cc2)CC1	149	79	103	nt
C=CCSc1nc2c(c(=O)[nH]1)C(c1ccncc1)C(C(=O)OC(C)C)=C(C)N2 (stereo not given)	nt	nt	97	-21
CCCCN(C)S(=O)(=O)c1cc(-c2cc(C)no2)ccc1C	87	87	103	nt
Cc1ccc(CNC(=O)c2ccc(NC(=O)N3CCSc4ncccc43)cc2)cc1	83	79	100	nt

2 neighbouring records out of the list so far, quoted:
SMILES	Sa growth inh	Sa growth inh second temp	GIV Gai3 FP	HCMV NEC inh
CC1CCCCC1NC(=O)COC(=O)c1ccc(N(C)C)cc1 (stereo not given)	106	98	nt	12
CN(C)CCNc1ccc(S(=O)(=O)Cc2ccc(Cl)cc2)nn1	nt	nt	103	5

Later entries
SMILES	Sa growth inh	Sa growth inh second temp	GIV Gai3 FP	HCMV NEC inh
COc1c(C)cnc2c1c(=O)n(CC(=O)N1CCN(c3ccccc3)CC1)c(=O)n2C	nt	nt	98	-13
CCOC(=O)c1cnc(Nc2nc3ccccc3o2)nc1CSC(=S)N1CCCCC1	87	92	102	-32
c1ccc(-c2nnc(CN3CCCc4ccccc43)o2)cc1	87	50	167	nt
CN(C)CCCn1c(=N)n(CC(O)C(C)(C)C)c2ccccc21 (stereo not given)	110	87	96	nt
Sc1nc2c(Cl)c(Cl)c(Cl)cc2o1	-0.8*	-0.6*	103	7
Cc1cc(C)n2nc(SCC(=O)Nc3cccc(C(F)(F)F)c3)nc2n1	94	78	97	-12
O=C(OCc1cccc(Cl)c1)c1ccccc1O	84	96	nt	-6
O=C(N=c1nc2ccccn2s1)c1ccccc1	90	92	nt	-2
Clc1cccc(Nc2nc(-c3ccncc3)nc3ccccc23)c1	nt	nt	97	-29
COc1cccc(C(Nc2ccccn2)c2c(C)[nH]c3ccccc23)c1 (stereo not given)	62	29	101	nt
COc1ccc(O)c(C(=O)c2cnn(S(=O)(=O)c3ccc(C)cc3)c2)c1	92	95	nt	-14
O=C(Cn1c(=O)n(Cc2ccco2)c(=O)c2sc3ccccc3c21)Nc1ccccc1C(F)(F)F	115	79	105	-8
COC(=O)COc1ccc(=O)n(-c2ccccc2)n1	100	83	107	-39
CCCCc1c(C)nc2c(-c3ccc(Cl)cc3)c(C)[nH]n2c1=O	32	13	108	-18
Cc1cc(C(=O)Cn2cnc3sccc3c2=O)c(C)n1-c1ccc2c(c1)OCO2	121	78	nt	-17
OC(c1ccccc1)C(F)(F)C1(F)OC(F)(F)C(F)(F)C1(F)F (stereo not given)	109	105	95	-3
Cc1ccc(CNCC(C)O)s1 (stereo not given)	112	84	100	4
COc1ccc(NC(=O)C2CCN(S(=O)(=O)c3c(C)noc3/C=C/c3ccco3)CC2)cc1	79	78	107	-53
O=C(Cn1ncc2c3ccccc3n(Cc3ccccc3F)c2c1=O)NCCCc1ccccc1	97	87	103	-23
O=C1COc2ccccc2N1Cc1ccccc1Cl	90	88	99	nt
COc1ccc(NC(=O)c2nnn(Cc3nc(-c4cc(OC)c(OC)c(OC)c4)oc3C)c2C)cc1	108	96	103	11
Fc1ccc(OCc2nnc3sc(-c4cccc(F)c4)nn23)cc1	nt	nt	112	-7
Cc1c(Cl)cccc1NC(=O)CCn1nc(C)c2c(C)n(-c3ccccc3)nc2c1=O	105	94	103	nt
O=C(NCC1OCCc2ccccc21)c1ccc(NC(=O)c2ccco2)cc1 (stereo not given)	124	82	101	nt
O=C(O)/C=C/c1coc2ccccc2c1=O	99	89	111	-8
Cc1ccc(SCc2nc(-c3ccc(C(=O)Nc4cc(C)ccc4C)cc3)oc2C)cc1	78	88	108	nt
CC(C)CC(NC(=O)c1ccc(Cl)cc1Cl)C(=O)O (stereo not given)	119	90	98	36
CC(=O)N1CCc2nc3sc(C(=O)Nc4ccc(Cl)cc4F)c(N)c3c(C(F)(F)F)c2C1	91	95	110	-6
Cc1nc(-c2ccccc2)sc1-c1ccc(SCC(=O)Nc2ccccc2)nn1	79	64	101&100	-11
S=c1nc[nH]c2c1nnn2Cc1ccccc1Cl	102	86	108	-45

Only GIV Gai3 FP, Sa growth inh second temp and HCMV NEC inh (4 entries from above):
Structure | GIV Gai3 FP | Sa growth inh second temp | HCMV NEC inh
O=C(Cn1c(=O)n(Cc2ccco2)c(=O)c2sc3ccccc3c21)Nc1ccccc1C(F)(F)F | 105 | 79 | -8
Cc1nc(-c2ccccc2)sc1-c1ccc(SCC(=O)Nc2ccccc2)nn1 | 101&100 | 64 | -11
S=c1nc[nH]c2c1nnn2Cc1ccccc1Cl | 108 | 86 | -45
O=C(NCC1CCCCC1)c1ccc(Br)o1 | 102 | 94 | -8

Next section.
SMILES	Sa growth inh	Sa growth inh second temp	GIV Gai3 FP	HCMV NEC inh
O=C1C=CC(=CN(O)c2ccccc2)C=C1	112	91	106	-27
N#C/C(C(=O)N1CCCC1)=c1/s/c(=C\c2ccccn2)c(=O)n1-c1ccccc1	112	91	nt	3
Cc1cc(NC(=O)c2cc3ccc4cccnc4c3[nH]2)no1	108	93	101	-23
O=C(NCc1cccs1)C1CCC(CNS(=O)(=O)c2ccccc2)CC1 (stereo not given)	120	82	101	nt
COc1ccc(N(Cc2nnc3n2CCCCC3)C(=O)Nc2cccc(C)c2)cc1Cl	86	86	99	nt
O=C(Cc1ccccc1)OCC(=O)C12CC3CC(CC(C3)C1)C2	99	73	nt	-22
Clc1ccc(-c2nnc(SCc3nc(-c4ccccc4)no3)o2)cc1	91	104	108	6
Cc1cc(C)c(NC(=O)Nc2sc3nc4n(c(=O)c3c2C)CCC(C)CC4)c(C)c1 (stereo not given)	99	88	99	-3
Cc1ccc(NC(=O)CCS(=O)(=O)c2cc3[nH]c(=O)c(=O)[nH]c3cc2C)cc1	109	89	107	-27
CCOc1ccc2nc(NC(=O)C(CC)CC)sc2c1	97	79	nt	3
CN(CCO)S(=O)(=O)c1ccc2c(c1)C(=O)c1cc(S(=O)(=O)N(C)CCO)ccc1-2	104	77	105	-132
O=C(CC1=NS(=O)(=O)c2ccccc2N1)N1CCN(C(c2ccccc2)c2ccccc2)CC1	nt	nt	110	-10
O=C(Nc1ccc(Cl)cc1)c1cc(S(=O)(=O)NC2CCCCCC2)ccc1F	111	93	101	nt
O=C(Cn1c(=O)nc(-c2ccccc2)c2cc(Cl)ccc21)NCc1ccc(Cl)cc1	87	78	105	-15
CCCC(CCC)C(=O)Nc1cccc(-c2cn3c(n2)SCC3)c1	114	103	110	15

A draw from above in order of number of heavy atoms, high to low:
SMILES	Sa growth inh	Sa growth inh second temp	GIV Gai3 FP	HCMV NEC inh
O=C(CC1=NS(=O)(=O)c2ccccc2N1)N1CCN(C(c2ccccc2)c2ccccc2)CC1	nt	nt	110	-10
COc1ccc(N(Cc2nnc3n2CCCCC3)C(=O)Nc2cccc(C)c2)cc1Cl	86	86	99	nt
Cc1cc(C)c(NC(=O)Nc2sc3nc4n(c(=O)c3c2C)CCC(C)CC4)c(C)c1 (stereo not given)	99	88	99	-3
N#C/C(C(=O)N1CCCC1)=c1/s/c(=C\c2ccccn2)c(=O)n1-c1ccccc1	112	91	nt	3
O=C(Nc1ccc(Cl)cc1)c1cc(S(=O)(=O)NC2CCCCCC2)ccc1F	111	93	101	nt
O=C1C=CC(=CN(O)c2ccccc2)C=C1	112	91	106	-27

Continued:
SMILES	Sa growth inh	Sa growth inh second temp	GIV Gai3 FP	HCMV NEC inh
Cc1ccc(CCNC(=O)c2ccc3c(c2)N(Cc2ccccc2)C(=O)c2ccccc2S3=O)cc1 (stereo not given)	96	96	104	10
O=C(Cn1c(=O)n(Cc2cccs2)c(=O)c2cccnc21)Nc1ccccc1F	108	88	104	-16
CS(=O)(=O)c1scc(-c2cccs2)c1C#N	104	79	102	-55
CCOC(=O)c1c(C)oc2ccc(OC(=O)NC(=O)N(C3CCCCC3)S(C)(=O)=O)cc12	79	84	nt	-33
COc1ccc(NS(=O)(=O)c2ccc(-n3cccn3)cc2)cc1OC	107	83	105	nt
CCOc1ccc(/C=C/c2nc(C#N)c(N3CCCCCC3)o2)cc1	89	90	102	-11
CCOc1ccc(CCNC(=O)C2CCN(c3ncnc4c3nc3n4CCCCC3)CC2)cc1	85	90	109	nt
COc1ccc(OCC(=O)OCc2cc(=O)n3oc(C)cc3n2)cc1	nt	nt	100	-32
CN(C(=O)Cn1c(=O)n(CCC(=O)NCc2ccc3c(c2)OCO3)c(=O)c2sccc21)c1ccccc1	91	91	102	-5
O=C(Nc1ccccc1Cl)c1sc2cccc(Cl)c2c1Cl	105	90	103	-21
Cc1sc(-c2noc(C(C)C)n2)cc1S(=O)(=O)N1CCCC(C(=O)N2CCN(C)CC2)C1 (stereo not given)	nt	nt	107	-12
COc1ccccc1OCc1nc2ccccc2s1	86	93	nt	1
O=C(Nc1ccc(-c2n[nH]c(=S)o2)cc1)c1ccccc1	77	84	102	-16

Source: PubChem

The order is random (roughly 0.85% active in at least one column).
